Screening data as filed in PubChem.
ClpP mod: qHTS Assay for Activators of ClpP | ATP-dependent Clp protease proteolytic subunit (Bacillus subtilis (strain 168)), P80244 | purified B. subtilis ClpP, FRET peptide cleavage, 20 min | Potency, µM (doses to about 57.5 µM), for inactives: at the top dose activity change, negative = active | hit rate 1.9% among 340,000 | AID 651965, 2013; active = well fitted falling curve with a large enough effect; inconclusive = small, poorly fitted or top-dose-only effect; inactive = no such curve, though single readings can be large or run the other way; also: the source files actives as falling curves though it sought activators and does not explain the sign; nearly all actives have a fitted effect of over 65% in size; many hits overshoot -100%
Target sequence (P80244 whole entry, looked up): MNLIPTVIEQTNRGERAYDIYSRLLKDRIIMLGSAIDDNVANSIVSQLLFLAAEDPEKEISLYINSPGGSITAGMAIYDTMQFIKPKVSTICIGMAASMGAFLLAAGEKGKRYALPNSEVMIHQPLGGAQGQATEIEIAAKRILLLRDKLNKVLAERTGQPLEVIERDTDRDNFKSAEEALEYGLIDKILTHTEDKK
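Buffer: 100 mM Tris/HCl pH8, 100 mM KCl, 0.05% low protease BSA, 2.5% glycerol, 0.01% Tween-20. ClpP 10 microg/mL final; 20 min RT; delta FRET normalized to ADEP and DMSO controls.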
* = called active by the depositor. Potency is read from the fitted curve at half-maximal effect. These rows are one share of the data; rates above refer to the full screens.

How did CCc1ccccc1NC(=O)Cn1c(=O)n(-c2ccc(C)cc2)c(=O)c2c1c1cc(C)ccc1n2C do in these assays?
ClpP mod: 4.8%

What do the screens show for `O=C(CSc1n[nH]c(-c2ccccc2Cl)n1)NCCCc1ccccc1`?
ClpP mod: 0.4%

Results for O=C(c1ccc(F)cc1)n1nc(-c2ccccc2)nc1NCc1ccc(F)cc1 ?
ClpP mod: -2.4%

What do the screens show for `C=C(C)CSc1nc(-c2ccccc2)cc(-c2ccc(OC)cc2)c1C#N`?
ClpP mod: inconclusive

What do the screens show for `CCOC(=O)c1cccc(NC(=O)CCc2c(C)nn(-c3ccc(N4CCOCC4)nn3)c2C)c1`?
ClpP mod: -3.3%

Results for Cc1ccc(NC(=O)c2cc(S(=O)(=O)N3CCOCC3)c(Cl)cc2Cl)cc1 ?
ClpP mod: -3.8%

What do the screens show for `O=C(CN1C(=O)COc2ccccc21)NCCc1ccc(Cl)cc1`?
ClpP mod: 1.9%

Results for CC(=O)c1ccc(NC(=O)c2nc3ccccc3nc2N2CCCCC2)cc1 ?
ClpP mod: 1.7%

Results for CCOc1ccc(N(CC(=O)NCc2ccc(C)cc2)S(=O)(=O)c2c(C)noc2C)cc1 ?
ClpP mod: 1.8%

Results for CCc1cccc2c(-c3ccccc3)nc(SCC(=O)Nc3ccccc3OC)nc12 ?
ClpP mod: -3.4%

Results for Cc1ccc2[nH]c(CSc3nnc(NC(=O)COc4ccccc4)s3)cc(=O)c2c1 ?
ClpP mod: 0.4%

How did CC(=O)N1CCc2cc(S(=O)(=O)NC(CC(C)C)C(=O)NCCc3ccc(C)cc3)ccc21 (stereo unspecified) do in these assays?
ClpP mod: 0.3%

Results for Cc1cc(OC(C)C(=O)Nc2c(C(=O)c3ccc(F)cc3)oc3ccccc23)ccc1Cl (stereo unspecified) ?
ClpP mod: 4.3%

What do the screens show for `Cc1cc(N2CCCCC2)nc2ccc(NC(=O)/C=C/c3ccc(OC(C)C)cc3)cc12`?
ClpP mod: -4.6%

Results for CCN1C(=O)c2ccccc2Sc2ccc(NC(=O)Nc3ccc(Br)c(C)c3)cc21 ?
ClpP mod: -11%

Results for COc1ccc(C)cc1NC(=O)Cn1c(=O)c(C(F)(F)F)nc2ccccc21 ?
ClpP mod: 7.2%

How did CSc1nn(Cc2ccc(F)cc2)c(N)c1S(=O)(=O)c1ccc(Cl)cc1 do in these assays?
ClpP mod: -1.5%

What do the screens show for `Cc1cccc(NC(=O)CSc2nc3c(oc4ccccc43)c(=O)n2-c2ccc(F)cc2)c1`?
ClpP mod: -6.1%

How did COc1cccc(CN2C(=O)CN(C3CCCCC3)C(=O)C2c2ccc(OC(C)C)c(OC)c2)c1 (stereo unspecified) do in these assays?
ClpP mod: -0.2%

Results for Cc1cccc(CNC(=O)CS(=O)(=O)c2cccc3nsnc23)c1 ?
ClpP mod: -2.2%

What do the screens show for `O=C(NCc1ccccc1)c1ccc2c(c1)CCN2S(=O)(=O)c1ccc(Cl)cc1`?
ClpP mod: -0.7%

Results for Cc1ccc(-n2ncc(C(=O)NCCN3CCc4ccccc4C3)c2C2CCNCC2)cc1C ?
ClpP mod: -0.9%

Results for CCOc1ccc(NCc2cccn2-c2nnc(N3CCC(C(=O)NCc4ccccc4Cl)CC3)s2)cc1 ?
ClpP mod: 0.8%

How did CCOC(=O)c1cc2c(=O)n3ccccc3nc2n(CC2CCCO2)c1=NC(=O)c1ccc(C(C)(C)C)cc1 (stereo unspecified) do in these assays?
ClpP mod: 3.8%

What do the screens show for `CCCn1c2ccccc2c2cnn(CC(=O)NCC3CCN(Cc4ccc(F)cc4)CC3)c(=O)c21`?
ClpP mod: inconclusive

How did COc1ccc(-c2noc(N3CCN(c4cccc(C)c4C)CC3)n2)cc1OC do in these assays?
ClpP mod: -1.6%

What do the screens show for `CC(C)(C)C1CCc2c(sc3nc(-c4cc5cc(Br)ccc5oc4=O)[nH]c(=O)c23)C1` (stereo unspecified)?
ClpP mod: -1.1%

What do the screens show for `CCOC(=O)c1ccccc1NC(=O)CN(c1ccccc1)S(=O)(=O)c1ccc(OCC)cc1`?
ClpP mod: inconclusive

What do the screens show for `CSc1ccc(CCNC(=O)Cn2ncc3c(=O)oc4ccc(C)cc4c32)cc1`?
ClpP mod: -0.7%

How did COC(=O)c1ccc(Cl)cc1NC(=O)N1CC(C)Oc2ccccc21 (stereo unspecified) do in these assays?
ClpP mod: inconclusive

How did CC(C)Cc1nn2c(=O)cc(COC(=O)c3ccccc3NC(=O)C3CCCCC3)nc2s1 do in these assays?
ClpP mod: 32%

How did COc1ccc(C(=O)N2CCC(c3nc4ccccc4s3)CC2)cc1Cl do in these assays?
ClpP mod: -1.1%

Results for COc1cccc(CNC(=O)c2cc3c(=O)n(C)c4ccccc4c3n2C)c1 ?
ClpP mod: -7.7%

Results for CC(C)(Oc1ccc(Cl)cc1)C(=O)Nc1cccc(-c2cn3cccnc3n2)c1 ?
ClpP mod: 3.9%

How did CCc1ccc(NC(=O)CSc2nc3ccccc3c(=O)n2CCNC(C)=O)cc1 do in these assays?
ClpP mod: 0.1%

How did COC(=O)CC1Oc2ccc(C)cc2-n2cc(-c3ccc(C)cc3)nc21 (stereo unspecified) do in these assays?
ClpP mod: -3.1%

4 compounds drawn at random from the list so far:
What do the screens show for `CCCn1c2ccccc2c2cnn(CC(=O)NCC3CCN(Cc4ccc(F)cc4)CC3)c(=O)c21`?
ClpP mod: inconclusive

How did COC(=O)c1ccc(Cl)cc1NC(=O)N1CC(C)Oc2ccccc21 (stereo unspecified) do in these assays?
ClpP mod: inconclusive

What do the screens show for `CCOC(=O)c1ccccc1NC(=O)CN(c1ccccc1)S(=O)(=O)c1ccc(OCC)cc1`?
ClpP mod: inconclusive

How did CC(C)Cc1nn2c(=O)cc(COC(=O)c3ccccc3NC(=O)C3CCCCC3)nc2s1 do in these assays?
ClpP mod: 32%

(listing goes on)
Results for CC(=O)Nc1cccc(C(=O)NCc2ccc3c(c2)CCN3C(C)=O)c1 ?
ClpP mod: -1.7%

How did Cc1nc2sc(C(=O)N(C)c3ccccc3)c(NC(=O)c3ccccc3Cl)c2c(C)c1C do in these assays?
ClpP mod: 0.1%

Results for Cn1nc(C(=O)N2CCN(c3ccccc3F)CC2)c2c1-c1ccccc1SC2 ?
ClpP mod: -3.6%

Results for O=C(CS(=O)(=O)c1nc(-c2ccc(Cl)cc2)cn1-c1ccccc1)Nc1ccc(F)cc1F ?
ClpP mod: -8.2%

What do the screens show for `Cc1cccc(NC(=O)CSc2nc(=O)n(CCN3CCOCC3)c3c2CCC3)c1C`?
ClpP mod: -11%

What do the screens show for `CC(C)NC(=O)c1ccc(Cn2c(SCc3ccc(F)cc3)nc3cccnc32)cc1`?
ClpP mod: inconclusive

How did CCOc1ccc(-c2cn3c(n2)sc2cc(C(=O)NCCCc4ccccc4)ccc23)cc1 do in these assays?
ClpP mod: 13%

Results for CCOC(=O)c1cnc(N2CCN(c3ccc(C)cc3C)CC2)c2ccccc12 ?
ClpP mod: inconclusive

What do the screens show for `COc1ccc(CNC(=O)c2cc(-c3ccc(OC)cc3)on2)cc1`?
ClpP mod: -12%

How did COC(=O)c1cc2occc2n1Cc1nc(-c2ccc(C)cc2)oc1C do in these assays?
ClpP mod: -2.8%

How did O=C(CSC1=Nc2ccccc2N=C(c2ccc(F)cc2)C1)NCc1ccc(F)cc1 do in these assays?
ClpP mod: 2.7%

Results for CCc1ccccc1NC(=O)COC(=O)c1cn(CC)c2nc(C)ccc2c1=O ?
ClpP mod: -0.1%

Of the compounds above, these have two or more sulfur atoms:
Results for Cc1ccc2[nH]c(CSc3nnc(NC(=O)COc4ccccc4)s3)cc(=O)c2c1 ?
ClpP mod: 0.4%

How did CSc1nn(Cc2ccc(F)cc2)c(N)c1S(=O)(=O)c1ccc(Cl)cc1 do in these assays?
ClpP mod: -1.5%

Results for Cc1cccc(CNC(=O)CS(=O)(=O)c2cccc3nsnc23)c1 ?
ClpP mod: -2.2%

More results.
What do the screens show for `COC(=O)c1ccc(C2Nc3c(C)cccc3-c3cc(C)nn32)cc1` (stereo unspecified)?
ClpP mod: -2.3%

What do the screens show for `Cc1ccccc1NC(=O)Cn1cc(S(=O)(=O)c2ccccc2)c(=O)c2ccccc21`?
ClpP mod: -0.5%

What do the screens show for `CCc1ccc(CNC(=O)CCCN2C(=O)c3cccnc3Oc3ccc(Cl)cc32)cc1`?
ClpP mod: -0.1%

How did CCCCC(=O)N1CCN(c2nc3c(C)c(C)ccc3s2)CC1 do in these assays?
ClpP mod: -0.1%

How did COc1cc(Nc2ncc3c(n2)CCN(Cc2cccc(C)c2)C3)cc(OC)c1 do in these assays?
ClpP mod: 9.1%

What do the screens show for `Cc1oc(-c2ccc(Cl)cc2)nc1CN1CCC(C(=O)NCCCN2CCN(c3cccc(Cl)c3)CC2)CC1`?
ClpP mod: -0.5%

Results for CC(C)(C)C1CCC(NC(=O)c2cnn3c2NC(=C2CC2)C=C3C(F)F)CC1 (stereo unspecified) ?
ClpP mod: -13%

How did Cc1noc(C)c1S(=O)(=O)N(CC(=O)Nc1ccc(C(F)(F)F)cc1)c1ccc(C(C)C)cc1 do in these assays?
ClpP mod: -5.3%

What do the screens show for `COc1ccc(C)cc1NC(=O)Nc1ccccc1OCc1cc(=O)n2ccccc2n1`?
ClpP mod: 85%

What do the screens show for `CC1CCN(c2oc(-c3ccc(COc4ccccc4)o3)nc2C#N)CC1`?
ClpP mod: 16µM*

What do the screens show for `Cc1nnc(SCc2ccc(Cl)cc2)c2cc3occc3n12`?
ClpP mod: -8.6%

What do the screens show for `CCOc1ccccc1C1N=C(N)Nc2nc3ccccc3n21` (stereo unspecified)?
ClpP mod: 0.0%

Structures from the list above containing a thiophene ring, fused or not:
What do the screens show for `CC(C)(C)C1CCc2c(sc3nc(-c4cc5cc(Br)ccc5oc4=O)[nH]c(=O)c23)C1` (stereo unspecified)?
ClpP mod: -1.1%

How did Cc1nc2sc(C(=O)N(C)c3ccccc3)c(NC(=O)c3ccccc3Cl)c2c(C)c1C do in these assays?
ClpP mod: 0.1%

Of the compounds above, these have bromine.
Results for CCN1C(=O)c2ccccc2Sc2ccc(NC(=O)Nc3ccc(Br)c(C)c3)cc21 ?
ClpP mod: -11%

What do the screens show for `CC(C)(C)C1CCc2c(sc3nc(-c4cc5cc(Br)ccc5oc4=O)[nH]c(=O)c23)C1` (stereo unspecified)?
ClpP mod: -1.1%

(continued)
What do the screens show for `Cc1ccccc1-c1nn2c(=O)cc(CN3CCN(C(=O)c4ccc(C(C)(C)C)cc4)CC3)nc2s1`?
ClpP mod: -6.1%

How did CCC(C)NC(=O)c1ccc2nc(Cc3ccccc3)oc2c1 (stereo unspecified) do in these assays?
ClpP mod: -1.5%

What do the screens show for `Cc1ccccc1NC(=O)CCS(=O)(=O)c1cc(Br)cc2c1N(C(=O)C1CC1)CC2`?
ClpP mod: 0.7%

How did CCOc1cc(C2C(C(=O)OC)=C(C)NC3=C2C(=O)c2ccccc23)ccc1O (stereo unspecified) do in these assays?
ClpP mod: 1.3%

Results for CCCn1c(=N)c(C(=O)NC2CCCCC2)cc2c(=O)n3cc(C)ccc3nc21 ?
ClpP mod: 19%

Results for CCCNC(=O)COCc1cc(-c2ccc(F)cc2)on1 ?
ClpP mod: -3.2%

Results for CCOc1ccccc1NC(=O)Cn1nnc(C(=O)NCc2ccc(F)cc2)c1N ?
ClpP mod: -0.5%

What do the screens show for `Cc1nnsc1C(=O)Oc1ccccc1Cl`?
ClpP mod: 0.2%

Results for CCCCOc1ccc(C(=O)N2CCCCC2CCN2CCOCC2)cc1 (stereo unspecified) ?
ClpP mod: -2.1%

How did CCn1c(=O)n(-c2ccc3c(c2)OCO3)c2nc(-c3cc(OC)ccc3OC)nc(C(N)=O)c21 do in these assays?
ClpP mod: -0.5%

Results for CC1CCCN(CCCNC(=O)c2ccc3c(c2)N(Cc2cccc(Cl)c2)C(=O)c2ccccc2S3(=O)=O)C1 (stereo unspecified) ?
ClpP mod: -2.6%

How did CCOc1ccc(NC(=O)c2cc3c(-c4ccccc4F)nn(C)c3s2)cc1 do in these assays?
ClpP mod: 188%

How did COc1cc(Nc2nc(-c3ccc(OC)c(OC)c3)nc3ccccc23)cc(OC)c1 do in these assays?
ClpP mod: 3.6%

How did Cc1ccc2[nH]cc(C(c3ccccc3)c3cccs3)c2c1 (stereo unspecified) do in these assays?
ClpP mod: -5.1%

What do the screens show for `CCc1ccc2occ(CC(=O)Nc3ccccc3C(F)(F)F)c2c1`?
ClpP mod: -0.3%

How did CCOc1ccc(-c2nc(CSCC(=O)N3CCN(c4cccc(C(F)(F)F)c4)CC3)c(C)o2)cc1 do in these assays?
ClpP mod: -6.6%

Results for Cc1ccc2nc(-c3ccc(NC(=O)c4ccc(S(C)(=O)=O)cc4)cc3)sc2c1 ?
ClpP mod: -11%

What do the screens show for `CCSc1ncc(Cl)c(C(=O)N2CCN(c3ccccc3OC)CC2)n1`?
ClpP mod: 0.2%

Results for COC(=O)c1ccc(NC(=O)NCCn2nnc3cc(S(=O)(=O)N(C)C)ccc32)cc1 ?
ClpP mod: -1.7%

How did COc1cc(Cl)c(C)cc1NC(=O)c1cnc(N2CCOCC2)c2ccccc12 do in these assays?
ClpP mod: -7.8%
